Assay outcomes deposited in PubChem by National Center for Advancing Translational Sciences (NCATS).
miR-21 FLuc: miR-21 reporter, rising signal; HeLa miR-21 FLuc reporter, luciferase, 48 h; Potency, µM (titrated, usually from 38.3 µM), inactives show at the highest dose reporter change, positive = more light; 340,000 tested, under 10 active; AID 2288; active = well fitted rising curve with a large enough effect; inconclusive = small, poorly fitted or top-dose-only effect; inactive = no such curve, though single readings can be large or run the other way;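 note: % of control where 0% means no effect; miR-21 action dims this reporter so a rising signal means less miR-21 action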
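HeLa cells stably expressing CMV-driven firefly luciferase with a downstream miR-21 binding sequence, endogenously expressing miR-21, were treated with titrations (up to about 40uM final) for 48 hours at 37 degree Celsius. Luciferase luminescence was read after lysis.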
Rango release inh: inhibition of RanGTP-driven Rango-importin beta dissociation; Biochemical FRET Rango-importin beta, RanGTP-induced dissociation; AID 540253; 0.071% of 340,000 active; Potency, µM (doses to about 46.1 µM), for the others: top-dose activity change, negative = inhibition; O95149+P62826; active means falling FRET ratio curve, often poorly fitted, with flat reads before Ran was added; inconclusive means other falling curves, or compound fluorescence or quenching; inactive means flat or rising ratio curve;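 note: potency is the fitted concentration of half-maximal effect; % of control where 0% means no effect; nearly all actives have a fitted effect of over 45% in size; -100% = wells without RanGTP and RCC1; the record marks most hits as doubtful in a second field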
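FRET read at 45 min, room temperature: inhibitors block the CFP/YFP signal rise when RanGTP (0.6 uM Ran, 2 mM GTP, 0.2 uM RCC1) frees Rango (0.1 uM) from importin beta (0.25 uM). Pre-read after 5 min compound exposure flags interference.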
GLA inh pH 4.5: alpha-galactosidase A (human) inhibition, pH 4.5 | 230,000 tested, under 10 active | activity change, negative = inhibition, % at 105 µM | P06280 | purified enzyme, 4-MU-alpha-Gal fluorescence, pH 4.5 | AID 1467; inconclusive = small, poorly fitted or top-dose-only inhibition, or a rising curve; inactive = flat fitted curve, though single readings scatter; no compound was filed as active;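 note: 0% = full activity with enzyme and -100% = basal without enzyme; dose as in the result columns while the protocol names 77 µM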
Target sequence (P06280 whole entry, looked up): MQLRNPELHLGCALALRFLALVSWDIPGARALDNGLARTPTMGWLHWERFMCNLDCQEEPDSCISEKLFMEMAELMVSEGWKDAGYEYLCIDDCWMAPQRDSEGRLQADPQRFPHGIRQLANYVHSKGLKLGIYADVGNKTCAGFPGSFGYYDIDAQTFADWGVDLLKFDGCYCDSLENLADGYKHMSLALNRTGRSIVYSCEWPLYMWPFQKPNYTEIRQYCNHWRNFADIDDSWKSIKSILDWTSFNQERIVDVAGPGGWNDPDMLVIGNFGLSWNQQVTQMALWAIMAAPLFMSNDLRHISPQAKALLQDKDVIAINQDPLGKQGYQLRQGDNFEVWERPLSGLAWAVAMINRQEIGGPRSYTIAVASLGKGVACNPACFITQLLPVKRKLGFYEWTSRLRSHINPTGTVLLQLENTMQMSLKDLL
Rango complex inh: prevents formation of the Rango-importin beta complex. Q14974. Rango CFP/YFP FRET sensor + importin beta, 45 min. Potency, µM (highest dose often 92.2 µM), without a hit: at the top dose inhibition of complex formation. 0.031% of 340,000 active; active = rising FRET ratio curve, often small or poorly fitted; inconclusive = mostly compound fluorescence or quenching in the first reads; inactive = flat curves in all reads;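 note: potency is the fitted concentration of half-maximal effect; 0% = DMSO wells and 100% = buffer wells lacking importin beta; nearly all actives have a fitted effect of over 15% in size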
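FRET biosensor Rango (snurportin 1 IBB between N-terminal EYFP and C-terminal Cerulean), 50 nM in PBS/1 mM DTT/0.02% Tween-20/0.1% BSA, preincubated 5 min RT with compound; 0.125 microM importin beta added, 45 min RT, CFP/YFP FRET ratio read.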
Numbers without * were called inactive; u = inconclusive; x = no result given; & = joins results of further samples. Some of the compounds tested, so the mix of outcomes need not match the whole.

structure	miR-21 FLuc	Rango release inh	GLA inh pH 4.5	Rango complex inh
Nc1c(C(=O)N2CCCCC2)sc(=S)n1-c1ccccc1	-13%	-2%	-16	0.3%
COc1ccc(OC)c(NC(=O)C2CCCN(S(=O)(=O)c3cccc4nsnc34)C2)c1 (stereo not given)	-4%	-12%	5	-1.9%
O=C(CC1CCCC1)N1CCN(S(=O)(=O)c2ccccc2)CC1	x	18%	x	0.7%
Cc1cc2n(c1)CCn1c(C)ccc1-2	2%	x	-6	x
COc1ccc(C(=O)C2CCCN(Cc3ccc4nonc4c3)C2)cc1OC (stereo not given)	16%	-5%	-7	1.1%
CCN(CC)CCNC(=O)c1c(C)n(-c2ccccc2)c2cc(Br)c(OC)cc12	-16%	-10%	4	4.3%
CC(OC(=O)c1cc2c(ccc3ccccc32)oc1=O)c1nc2ccccc2s1 (stereo not given)	-18%	u	27	-1.6%
Cc1cccc(C2CC(c3ccccc3)Nc3ncnn32)c1 (stereo not given)	-2%	-18%	2	-2.6%
CCOc1ccc(N(C)S(=O)(=O)c2c[nH]c(C(=O)OC)c2)cc1	4%	8%	x	2.4%
COc1ccc(C(C(=O)NC2CCCC2)N(C(=O)c2snc(-c3ccc(F)cc3)c2N)c2ccccc2)cc1 (stereo not given)	0%	-9%	5	0.5%
CC(=O)C1C(c2cccc(Oc3ccccc3)c2)NC(=O)NC1(O)C(F)(F)F (stereo not given)	-1%	0%	10	0.0%
O=C(Cn1nnc(-c2ccccc2NC(=O)C2CC2)n1)NC1CCCCC1	-2%	-10%	-3	4.8%
CCO[C@@H]1OC(C(=O)NCc2ccccc2)=C[C@H](C)[C@H]1CCCO	-2%	13%	4	0.6%
CCC(C(=O)Nc1cc(C)nn1-c1nc(C)cc(C)n1)c1ccccc1 (stereo not given)	0%	-10%	0	-1.1%
Cc1ccc(-c2c(C(=O)N/N=C/c3ccncc3)nnn2-c2nonc2N)cc1	1%	-29%	x	-1.4%
CC(C)N1CCc2c(sc(NC(=O)CCc3ccccc3)c2C(N)=O)C1	-1%	u	-4	u
CNC(=O)C12CCC(C)(c3nc4cc(C)c(C)cc4nc31)C2(C)C (stereo not given)	-18%	0%	0	-0.6%
CCc1ccc(NC(=O)CN(N=Nc2nonc2C)c2nonc2C)cc1	16%	-14%	-17	0.6%
CCN(CC(=O)NCc1cccs1)C(=O)c1ccc(OC)c(S(=O)(=O)N2CCOCC2)c1	x	-3%	x	u
COc1cc(C(=O)Nc2ccc(Nc3ccccc3)cc2)cc(OC)c1OC	18%	-6%	x	0.8%
CC(=O)C[C@H](O)CC(=O)[C@H]1OC(=O)CCCCCCc2ccccc21	x	-2%	x	-3.5%
Cc1cccc(NC(=O)C23CCC(C)(C2Br)C3(C)C)c1 (stereo not given)	4%	1%	0	-5.2%
CCCC1C(=O)Nc2ccccc2N1C(=O)c1cccc(C)c1 (stereo not given)	2%	7%	x	-0.1%
COC(=O)c1scc(C)c1NC(=O)c1ccccc1F	-13%	4%	x	-3.0%
NCCSC1CC(=O)N(c2ccc(Cl)c(Cl)c2)C1=O (stereo not given)	-25%	1%	x	-0.4%
COc1ccc(C2=NS(=O)(=O)N(C)C(C(=O)N3CCC(C)CC3)=C2)cc1	4%	-3%	x	0.9%
COc1ccc2nc(C)cc(SCC(=O)N/N=C/c3ccccc3)c2c1	-4%	1%	-12	0.7%
C/C=C(/C)C(=O)Nc1cccc(C2=NOC3(C2)C[C@@H](C(N)=O)N(C(=O)CC)C3)c1 (stereo not given in full)	3%	9%	5	3.7%
Cc1nnc(NC(=O)CSc2nnc(CNC(=O)c3ccccc3)o2)s1	-1%	2%	x	6.1%
O=c1cc(N2CCCCC2)c(-c2ccccc2)nn1Cc1ccc(F)cc1	12%	-19%	-1	-0.2%
COc1cccc2cc(C(=O)CS(=O)(=O)c3ccc(C)cc3)c(=O)oc12	-5%	u	x	u
Cc1cc(C)cc(NC(=O)CCn2ccnc2)c1	-2%	-1%	x	4.3%
COc1ccccc1NC(=O)c1ccc(NC(=O)CN2CCN(C(=O)c3ccco3)CC2)cc1	-2%	-21%	-9	-6.0%
CCCC(C(=O)Nc1ccc(S(=O)(=O)Nc2ncccn2)cc1)c1ccccc1 (stereo not given)	0%	-10%	x	0.1%
COC(=O)c1cscc1S(=O)(=O)Cc1ccccc1	-6%	-6%	x	2.2%
COc1ccc(Cn2c(N)c(C#N)c3nc4ccccc4nc32)cc1OC	-10%	12µM*	15	u
COc1ccccc1Nc1nc(N)nc(CSc2nccc(C)n2)n1	-25%	-6%	-7	-2.0%
CC(C)N1CC(COc2ccc(Br)cc2)OC1=O (stereo not given)	-10%	-12%	x	0.9%
Fc1ccc(-c2ccc(CNCc3ccccn3)o2)cc1	-53%	-1%	x	-0.2%
O=C(C[n+]1ccccc1)N/N=C/c1ccc(C(=O)O)cc1	x	5%	x	0.0%
COc1ccccc1NS(=O)(=O)c1ccc(Cl)cc1	-22%	-11%	-4	1.6%
Cc1nc(C(C)(C)O)n(-c2ccccc2)n1	-3%	10%	-4	-4.6%
COc1cc(CC(=O)OCC(=O)Nc2cc([N+](=O)[O-])ccc2Cl)cc(OC)c1OC	2%	-4%	0	-0.8%
O=C(CN1CCCCCC1)Nc1ccccc1[N+](=O)[O-]	-2%	6%	x	2.9%
COc1ccc(C2CC(c3ccc(C)cc3)=NN2C(=O)c2ccccc2)cc1 (stereo not given)	-2%	-4%	x	-0.5%
Cn1ccc(C(=O)N/N=C/c2ccccc2[N+](=O)[O-])n1	-49%	26%	2	-0.3%
O=C(c1cccc(Br)c1)c1conc1C(=O)c1ccco1	-8%	0%	4	1.1%
CCC(=O)NCCCOc1ccccc1	-11%	4%	11	-0.6%
CCOC(=O)c1ccc(NNC(C)=O)c([N+](=O)[O-])c1	4%	-5%	4	1.0%
Cc1cccc(C)c1NC(=O)Cn1nc(-c2ccccc2)nc1-c1ccccc1	0%	1%	-6	3.0%
O=C(OCCN=C1NS(=O)(=O)c2ccccc21)c1cccnc1	-5%	-4%	3	4.2%
O=C(COc1ccc(F)cc1)N(Cc1cccc(Br)c1)C1CCS(=O)(=O)C1 (stereo not given)	-6%	2%	x	-3.3%
CCn1c(SCC(=O)Nc2cccc(O)c2)nc2c1c(=O)n(C)c(=O)n2C	-8%	-11%	x	-1.3%
CC1CCN(C(=O)/C=C/c2ccc(C(C)(C)C)cc2)CC1	-58%	-25%	-9	0.3%
COc1ccccc1CNC(=O)c1c(-c2ccccc2)nn(-c2ccccc2)c1C	7%	5%	-8	0.2%
CCOC(=O)/C(=N\Nc1ccc(Cl)cc1)c1csc(Nc2ccccc2)n1	-5%	u	-3	u

(cont.)
structure	miR-21 FLuc	Rango release inh	GLA inh pH 4.5	Rango complex inh
Cc1nnc(SCC(=O)Nc2ccc(Cl)cn2)[nH]c1=O	-10%	-10%	-2	0.1%
CN1C(=O)C(C)(C)c2cc(S(=O)(=O)NCc3ccc(C(=O)NCc4ccco4)cc3)ccc21	1%	6%	x	1.7%
COC(=O)[C@@]1(C)[C@H]2C(=O)N(Cc3ccccc3)C(=O)[C@H]2[C@H]2CN=C(SC)N21	x	13%	x	-2.6%
Brc1cccc(CNc2nc3ccccc3n2CCN2CCOCC2)c1	-6%	-3%	-2	-1.3%
CSc1ccccc1NC(=O)COC(=O)Cc1ccsc1	x	-1%	x	4.6%
CN1/C(=C\C=C2\N=C(c3ccc(F)cc3)OC2=O)C(C)(C)c2ccccc21	0%	u	5	u
Cc1cccc(C)c1NC(=O)CNC(=O)C12CC3CC(CC(O)(C3)C1)C2	x	8%	x	0.6%
COc1ccc(OC)c(S(=O)(=O)Nc2ccc3[nH]c(=O)[nH]c3c2)c1	6%&12%	2%	x	0.0%

An excerpt from above with just GLA inh pH 4.5, Rango complex inh and Rango release inh:
compound | GLA inh pH 4.5 | Rango complex inh | Rango release inh
CN1C(=O)C(C)(C)c2cc(S(=O)(=O)NCc3ccc(C(=O)NCc4ccco4)cc3)ccc21 | x | 1.7% | 6%
COC(=O)[C@@]1(C)[C@H]2C(=O)N(Cc3ccccc3)C(=O)[C@H]2[C@H]2CN=C(SC)N21 | x | -2.6% | 13%

The listing continues.
structure	miR-21 FLuc	Rango release inh	GLA inh pH 4.5	Rango complex inh
O=C(Cc1ccccc1)NCC(=O)OCC(=O)c1ccc(Cl)c([N+](=O)[O-])c1	-1%	-1%	-3	2.5%
O=C(CSc1ccc2ccccc2c1)Nc1nc2ccccc2[nH]1	2%	-16%	9	-0.4%
Cc1ccc(/C([O-])=C(/C(=S)NCCN2CCOCC2)[n+]2ccccc2)cc1[N+](=O)[O-]	-3%	0%	6	-1.0%
CCOC(=O)C1C(=O)NC(SCC(N)=O)=C(C#N)C1c1ccccc1OCC (stereo not given)	-6%	u	-2	u
Cc1ccc(C)c(NC(=O)CSc2n[nH]c(-c3ccncc3)n2)c1	-15%	-10%	4	-3.0%
Cc1nonc1CN(C)C(=O)CC1C(=O)NCCN1Cc1ccccc1F (stereo not given)	1%	14%	x	1.5%
Cc1ccc(CN(CC(=O)N/N=C/c2ccccc2[N+](=O)[O-])S(=O)(=O)c2ccc(C)cc2)cc1	5%	44%	-11	0.2%
COc1ccc([C@@H]2CC(=O)c3c(O)cc(O[C@@H]4OC(CO[C@@H]5OC(C)[C@H](O)[C@H](O)C5O)[C@@H](O)[C@@H](O)C4O)cc3O2)cc1O (stereo not given in full)	x	-11%	x	-2.9%
CN(C)S(=O)(=O)c1cccc(NC(=O)COC(=O)c2c[nH]c(=O)[nH]c2=O)c1	3%	-11%	-28	-5.7%
CCC1CCCCN1CCCNC(=O)CS(=O)Cc1nc(-c2ccc(OC)c(OC)c2)oc1C (stereo not given)	-8%	-4%	x	2.7%
O=C(CN1C(=O)NC2(CCCC2)C1=O)Nc1ccccc1	-1%	15%	x	-2.7%
O=C(c1ccc(OCC2CCCO2)cc1)N1CCN(c2ccccc2)CC1 (stereo not given)	-5%	8%	-2	-2.2%
Cc1ccc(NCc2nnc(SCC(=O)NCc3ccco3)n2CC2CCCO2)c(C)c1 (stereo not given)	0%	4%	1	0.7%
Cc1ccc(C(=O)COC(=O)CNC(=O)Cc2ccccc2)cc1	-1%	4%	x	2.4%
CC(=O)Nc1ccc(C(=O)OCC(=O)Nc2ccccc2Sc2ccccc2)cc1	-4%	1%	-12	-0.1%
CCCCC(=O)Nc1cc(C)c2c(=O)oc3ccccc3c2n1	-1%	-18%	-20	u
CC1(C)CC(=O)C(C=NC(CCC(N)=O)C(=O)O)=C(O)C1 (stereo not given)	-3%	8%	2	-1.3%
Cc1c(N=C2SCC(=O)N2/N=C\c2ccc(Br)cc2)c(=O)n(-c2ccccc2)n1C	-5%	-2%	-13	2.1%
O=C(O)CCCn1cc(NC(=O)c2c(F)cccc2F)cn1	-1%	1%	3	3.9%
Cc1cc(C)nc(SCC(=O)N/N=C/c2cccnc2)n1	0%	-1%	x	-0.2%
C/C(=N/Nc1nc(-c2ccccc2)cc(-c2ccccc2)n1)c1ccc(N)cc1	19%	x	-2	x
COc1cccc(C(=O)Nc2c3c(nn2-c2ccc(Cl)cc2)CS(=O)(=O)C3)c1OC	-10%	2%	x	-0.3%
CCS(=O)(=O)Nc1cccc(-c2nc3cccnc3s2)c1	-43%	-9%	5	-0.2%
COc1ccc(OC)c(NC(=O)Nc2c(O)ccc3ccccc23)c1	x	-6%	x	-0.5%
CCn1c2ccc(F)cc2c2nnc(SCCN3CCCCC3)nc21	-12%&-22%	2%	x	-2.7%
COc1cc(-c2nc(-c3ccc(C)nc3OC)no2)cc(OC)c1OC	-5%	x	3	x
N#CC1=C(N)Oc2cc(N)ccc2C1C1CCCCC1 (stereo not given)	u	u	-10	u
